# Screens from PubChem BioAssay.
# HNF4A DNA FP: change in binding of human HNF4A to DNA, primary screen, biochemical, fluorescence polarization, FITC-DNA. 1 h. actives 0.3% (n = 360,000). activity change, % at 10 µM. Hepatocyte nuclear factor 4-alpha (Homo sapiens), P41235; in the data active = activity change above about 30%, passing the limit was not always enough;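 note: controls were the assay level and a saturating level of protein; the project sought stronger binding though the title names inhibitors; some compounds called inactive have numbers as strong as hits; positive values seem to mean higher polarization but the record does not say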
# Target sequence (P41235 whole entry, looked up): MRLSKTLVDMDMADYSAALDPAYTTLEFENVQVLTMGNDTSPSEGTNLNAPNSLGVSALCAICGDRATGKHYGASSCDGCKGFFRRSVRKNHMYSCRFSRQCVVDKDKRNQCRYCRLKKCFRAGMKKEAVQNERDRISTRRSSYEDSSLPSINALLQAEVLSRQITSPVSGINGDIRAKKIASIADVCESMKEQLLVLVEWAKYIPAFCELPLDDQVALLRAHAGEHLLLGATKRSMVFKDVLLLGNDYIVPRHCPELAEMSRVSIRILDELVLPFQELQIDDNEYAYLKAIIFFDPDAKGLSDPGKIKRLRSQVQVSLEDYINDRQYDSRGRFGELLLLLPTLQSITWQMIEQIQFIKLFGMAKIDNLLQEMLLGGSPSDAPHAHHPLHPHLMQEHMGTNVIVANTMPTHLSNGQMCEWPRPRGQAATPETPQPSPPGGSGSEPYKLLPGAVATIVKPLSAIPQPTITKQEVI
# ALR H2O2 inh: inhibitors of human ALR sulfhydryl oxidase, primary screen, biochemical, H2O2 detection, HRP-luminol luminescence, single point; FAD-linked sulfhydryl oxidase ALR (Homo sapiens), P55789; inhibition, % (test concentration not listed); actives 3.8% (n = 290,000); purified ALR, DTT oxidation;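 active = mean and each replicate at 75% or more; inconclusive = only one of the two met; inactive = neither met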;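 note: stock transfer was 7.5 nL into about 7.5 µL; 0% = neutral wells and 100% = wells with inactivated enzyme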
# RanGTP-Imp inh: inhibitors of RanGTP-importin-beta interaction, primary screen, biochemical, FRET, CFP-Ran, YFP-importin-beta, homogeneous | Ran GTPase (GTP-bound) - importin-beta complex | cell-free CFP-Ran/YFP-importin-beta FRET ratio | inhibition, % (concentration not given with the values) | actives 1.1% (n = 300,000);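 active = most replicates above 15%; inconclusive = exactly half above 15%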;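 note: 0% = DMSO wells and 100% = Ran loaded with GDP instead of GTP; wells of about 40 µL received 100 nL stock; the first replicate is given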
# Calb FLC: C. albicans growth inhibition with fluconazole, primary screen, CaCi-2 strain, Alamar Blue fluorescence; C. albicans CaCi-2 (fluconazole-resistant clinical isolate) + fluconazole, 48 h; growth inhibition, % (concentration not given with the values); actives 0.57% (n = 300,000); AID 1979, 2009;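 active = most replicates above 75%; inconclusive = exactly half above 75%; inactive = most below 75%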;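 note: all wells also contain fluconazole at 8 µg/ml as a sub-toxic cotreatment; 0% = median of DMSO wells and 100% = median of geldanamycin control wells; wells of about 8 µL received 7.5 nL stock; the first replicate is given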
# B2AR ag: beta2AR agonists driving receptor internalization, primary screen, cell-based, FAP fluorogen, flow cytometry; Beta-2 adrenergic receptor (Homo sapiens), P07550; Am2.2-beta2AR cells; reference of the scale not given here; response, % (test concentration not listed); actives 0.43% (n = 340,000); AID 504454, 2011;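 active = response above a set limit, near 3 SD of response in nonfluorescent compounds, cut at about 42% in these data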;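 note: stock transfer was 100 nL into about 11 µL; a reference agonist was the positive control; negative values mostly stem from fluorescent compounds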
# Target sequence (P07550 whole entry, looked up): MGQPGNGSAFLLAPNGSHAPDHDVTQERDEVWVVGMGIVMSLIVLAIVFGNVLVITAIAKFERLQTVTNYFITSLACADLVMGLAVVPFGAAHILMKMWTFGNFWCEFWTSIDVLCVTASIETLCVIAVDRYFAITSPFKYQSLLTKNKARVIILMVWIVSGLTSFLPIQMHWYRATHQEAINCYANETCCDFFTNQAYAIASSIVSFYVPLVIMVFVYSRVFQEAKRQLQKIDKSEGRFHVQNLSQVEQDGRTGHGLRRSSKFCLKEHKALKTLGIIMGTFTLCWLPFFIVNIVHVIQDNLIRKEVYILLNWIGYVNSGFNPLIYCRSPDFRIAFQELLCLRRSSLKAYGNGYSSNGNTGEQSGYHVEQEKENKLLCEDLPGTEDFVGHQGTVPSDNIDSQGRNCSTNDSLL
# LANA-H2B inh: blockers of LANA interaction with H2A/H2B – biochemical, FP readout, HTS, primary screen; cell-free LANA-H2A/H2B peptide, fluorescence polarization; Protein LANA1 (Human herpesvirus 8 type P (isolate GK18)), Q9QR71; actives 0.6% (n = 320,000); inhibition, % (concentration not given with the values); AID 2629, 2010; in the data active = inhibition mostly above about 10%, no sharp cut-off; inactive = mostly below about 6.7%;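 note: stock transfer was 7.5 nL into about 10 µL; 0% = median of vehicle wells and 100% = median of positive control wells; one replicate is shown; the record names a cut of 25% in any replicate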
# Vif A3G: inhibitors of Vif binding to APOBEC3G peptide, primary screen, biochemical, TR-FRET, GST-Vif 1-94, biotin-A3G peptide, dose response retest (AID 1117319) | actives 0.57% (n = 260,000) | Virion infectivity factor (Human immunodeficiency virus type 1 group M subtype B (isolate … | inhibition, %, or IC50 in µM where a hit was titrated | TR-FRET GST-Vif / biotin-A3G peptide binding; higher % means a stronger effect; test concentration not given here; strong numbers were not always called active;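 active = above the screen mean plus three standard deviations and confirmed in dose response; inconclusive = results disagree or hit not tested in dose response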;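 note: Vif residues 1-94 fused to GST binding biotinylated APOBEC3G peptide 110-148; 0% = full assay without inhibitor and 100% = GST in place of GST-Vif; retest series ran down from 100 µM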
# Numbers without * were called inactive; ? = inconclusive; . = no result given.
No.	Molecule	HNF4A DNA FP	ALR H2O2 inh	RanGTP-Imp inh	Calb FLC	B2AR ag	LANA-H2B inh	Vif A3G
1	COc1cc(S(=O)(=O)N2CCN(c3ccc(F)cc3)CC2)ccc1Cl	1.5	-2	-4.9	9	11	-2.0	-1%
2	CC(NC(=S)Nc1ccccc1OC(F)F)C(C)(C)C (stereo not given)	3.9	.	-2.2	-3	6	-0.1	.
3	C(=C\c1ccccc1)/CN1CCN(c2ncnc3c2oc2ccccc23)CC1	1.9	-5	?	92*	-9	-0.3	4%
4	N#C/C(=C\c1cccc(Oc2ccccc2)c1)C(=O)N1CCOCC1	-1.9	6	-3.8	14	7	3.6	.
5	CC(C)c1ccc(NC(=O)C2CCN(S(=O)(=O)c3ccc4c(c3)C(C)(C)C(=O)N4C)CC2)cc1	1.0	-3	-0.2	-9	3	-0.7	.
6	COc1cc2c(cc1NC(=O)c1cccnc1)oc1ccccc12	0.3	4	2.6	2	11	2.5	-4%
7	CCOc1ccc(C(C)=O)cc1COC(=O)c1cccnc1SC	-0.4	-3	5.0	4	-10	2.2	23%
8	O=C(NC1CCCCC1)C(=O)c1c[nH]c2ccccc12	-1.8	-1	.	.	-3	5.8	.
9	CCCc1c(O)nc(SCC(=O)NCc2ccco2)[nH]c1=O	-0.6	-50	-0.2	-4	-4	-5.2	2%
10	OC(COc1ccc(OCC(O)CN2CCN(Cc3ccccc3)CC2)cc1)CN1CCN(Cc2ccccc2)CC1 (stereo not given)	1.9	-19	-0.9	2	9	3.8	.
11	CC(C)C1Cc2c(sc3ncnc(NN)c23)CO1 (stereo not given)	5.2	-2	-4.7	6	15	-5.7	0%
12	Cc1c(C(=O)Nc2c(C)n(C)n(-c3ccccc3)c2=O)oc2ccccc12	-5.6	.	-2.7	4	4	-2.3	2%
13	CN1CCN(C(=O)c2cccn(Cc3ccc(C(F)(F)F)cc3)c2=O)CC1	-3.3	.	2.2	-6	8	0.7	1%
14	CCC1(C)Cc2nc3[nH]c(=S)n(-c4ccc(C)cc4)c(=O)c3cc2CO1 (stereo not given)	1.6	-6	5.8	5	2	10	.
15	CC(C)(C)Nc1nc(OCC(F)(F)F)nc(OCC(F)(F)F)n1	4.1	-21	4.7	2	-4	2.2	0%
16	O=C1NC(=S)N/C1=C\c1ccc(N2CCOCC2)cc1	16	-2	-13	-19	1	1.7	-3%
17	O=C(N1CCOCC1)N1CCN(S(=O)(=O)c2ccc(Cl)cc2)CC1	-1.3	1	-1.8	-1	-3	3.7	-6%
18	O=C(Nc1ccc(OCC(=O)N2CCOCC2)cc1)c1ccccc1Cl	-0.7	4	0.4	1	-6	1.4	.
19	CC1CC1C(=O)Nc1nc(-c2ccc(Cl)s2)cs1 (stereo not given)	2.6	0	6.6	-29	-20	2.8	-4%
20	CC1CCN(CCCNC(=O)C2CCCN(c3ncnc4c3nc3n4CCCCC3)C2)CC1 (stereo not given)	-0.7	5	-1.4	-2	-21	-1.1	.
21	O=C(NCc1ccco1)c1sc2cccc(F)c2c1Cl	-3.9	.	-4.4	7	0	1.8	77%
22	COc1cc(-n2c(C)nc3cc(C(=O)NCC4CCCO4)ccc32)cc(OC)c1OC (stereo not given)	4.1	-8	0.7	0	-5	-0.6	2%
23	O=C(Nc1cccc(-c2cnc3ccccc3n2)c1)c1ccco1	-2.8	47	-0.5	?	-10	1.6	8%
24	Cc1nc(N2CCN(C(=O)c3ccco3)CC2)nc2c1C(=O)CCC2	1.1	.	3.6	-7	0	2.5	8%
25	O=C(/C=C/c1ccccc1)Nc1ccc(CN2CCOCC2)cc1	7.1	26	-2.9	2	-2	-4.5	.
26	COc1ccc2c(c1)OCC1=C2CCC2(C)C(=O)CC=C12 (stereo not given)	.	-7	-13	4	.	-0.4	31%
27	Cc1nn2c(N3CCOCC3)cc(C(C)(C)C)nc2c1-c1ccccc1	2.2	1	-0.9	3	-4	-1.6	-1%
28	S=C(Nc1ccccc1)N1CCCN1c1ccccc1	5.0	87*	-2.4	0	2	6.2	-15%
29	Cc1ccc(Nc2nnc(SCC(=O)NCc3ccco3)s2)cc1	-2.1	.	-1.2	8	-1	.	14%
30	COCCCNC(=O)Cn1nnc(-c2ccccc2NC(=O)c2ccc(F)cc2)n1	-0.1	4	-3.1	9	2	3.3	2%
31	Cc1nn(-c2ncccn2)c2c1C(=O)CC(C)(C)C2Br (stereo not given)	0.4	.	.	.	-4	.	-1%
32	CC(C)N=C(Nc1cccnc1)c1ccccc1	-2.0	-31	-3.6	1	-1	5.6	.
33	c1coc(CNCC2OCCc3ccccc32)c1 (stereo not given)	0.8	0	2.4	-17	-3	2.3	11%
34	CC12CC3CC(C)(C1)CC(C(=O)NC(=S)N1CCCCC1)(C3)C2	0.9	-2	-1.0	6	-1	-1.1	?
35	COc1ccc(CNC(=O)/C=C/C(=O)O)cc1OC	0.5	-6	-5.0	11	-1	0.7	-2%
36	COc1ccc(NC(=O)CCC(=O)N/N=C/c2cccnc2)cc1	2.3	-1	2.0	12	3	1.3	.
37	O=C(N/N=C/c1ccc2ccccc2c1)c1ccc(COc2ccc3c(c2)CCC3)o1	-7.9	-4	1.8	9	-4	1.5	4%
38	CN(Cc1cnn(Cc2ccccc2)c1)C(=O)CN=C1NS(=O)(=O)c2ccccc21	-0.1	1	.	.	12	1.3	23%
39	COc1cc(CC(=O)Nc2ccc3nc(C)sc3c2)cc(OC)c1OC	0.5	-6	-1.3	-1	-5	-3.5	.
40	COc1cc(NC(=O)Cn2nc(Cc3cccnc3)c3ccccc3c2=O)cc(OC)c1OC	3.3	.	-2.6	-8	-3	-1.0	-2%

# From no. 27 up to 37, copied from above:
No.	Molecule	HNF4A DNA FP	ALR H2O2 inh	RanGTP-Imp inh	Calb FLC	B2AR ag	LANA-H2B inh	Vif A3G
27	Cc1nn2c(N3CCOCC3)cc(C(C)(C)C)nc2c1-c1ccccc1	2.2	1	-0.9	3	-4	-1.6	-1%
28	S=C(Nc1ccccc1)N1CCCN1c1ccccc1	5.0	87*	-2.4	0	2	6.2	-15%
29	Cc1ccc(Nc2nnc(SCC(=O)NCc3ccco3)s2)cc1	-2.1	.	-1.2	8	-1	.	14%
30	COCCCNC(=O)Cn1nnc(-c2ccccc2NC(=O)c2ccc(F)cc2)n1	-0.1	4	-3.1	9	2	3.3	2%
31	Cc1nn(-c2ncccn2)c2c1C(=O)CC(C)(C)C2Br (stereo not given)	0.4	.	.	.	-4	.	-1%
32	CC(C)N=C(Nc1cccnc1)c1ccccc1	-2.0	-31	-3.6	1	-1	5.6	.
33	c1coc(CNCC2OCCc3ccccc32)c1 (stereo not given)	0.8	0	2.4	-17	-3	2.3	11%
34	CC12CC3CC(C)(C1)CC(C(=O)NC(=S)N1CCCCC1)(C3)C2	0.9	-2	-1.0	6	-1	-1.1	?
35	COc1ccc(CNC(=O)/C=C/C(=O)O)cc1OC	0.5	-6	-5.0	11	-1	0.7	-2%
36	COc1ccc(NC(=O)CCC(=O)N/N=C/c2cccnc2)cc1	2.3	-1	2.0	12	3	1.3	.
37	O=C(N/N=C/c1ccc2ccccc2c1)c1ccc(COc2ccc3c(c2)CCC3)o1	-7.9	-4	1.8	9	-4	1.5	4%

# Later entries.
No.	Molecule	HNF4A DNA FP	ALR H2O2 inh	RanGTP-Imp inh	Calb FLC	B2AR ag	LANA-H2B inh	Vif A3G
41	CCOc1ccc(C(=O)Nc2ccc3c(c2)OCCO3)cc1[N+](=O)[O-]	7.2	-1	?	7	-3	2.1	?
42	S=C(c1ccccc1)N(c1ccccc1)c1ccccc1	-2.5	-2	1.6	5	-1	-4.0	6%
43	O=C(NCC1CCCO1)C1CCN(S(=O)(=O)Cc2ccccc2)CC1 (stereo not given)	2.6	0	-2.0	5	3	-1.0	-6%
44	COc1ccccc1NC(=O)CCCc1c[nH]c2ccccc12	-2.1	29	-0.7	-9	6	-2.9	-6%
45	COC(=O)Cc1[nH]n(-c2nc3ccccc3s2)c(=O)c1C(C)=Nc1ccc(OC)cc1	4.3	.	-3.7	5	5	4.4	5%
46	COc1ccc(C2CC(=O)C3=C(C2)Nc2ncnn2C3c2ccccc2C)cc1 (stereo not given)	1.7	.	-1.5	1	-4	-2.8	-2%
47	Cc1ccccc1NC(=O)Cn1cnc2c1c(=O)n(C)c(=O)n2C	-1.8	-10	4.0	-7	4	0.2	-5%
48	Cc1cc(C)c(S(=O)(=O)N(CC(=O)NCc2cccnc2)C2CCCCC2)c(C)c1	1.6	-14	2.4	1	-1	-1.7	1%
49	O=C(COC(=O)c1ccc(S(=O)(=O)NCc2ccco2)cc1)NC1CCCCC1	3.7	-3	-2.7	3	7	4.7	7%
50	CC(=O)Nc1ccc(CC#N)cc1	-0.9	2	-2.9	1	6	1.9	-2%
51	Cc1ccc(NC(=O)c2ccc(OC(=O)C(C)Oc3ccc(Cl)cc3C)cc2)cc1 (stereo not given)	-2.1	14	1.0	-19	6	0.0	-7%
52	CCOc1cc(S(=O)(=O)N2CCN(C(=O)c3ccco3)CC2)ccc1F	-0.5	2	0.3	-3	-12	-0.9	9%
53	CC(C)OC(=O)c1ccc(N2C(=O)C3CC=CCC3C2=O)cc1 (stereo not given)	6.5	-9	-3.4	-1	-4	-1.1	3%
54	O=C(O)c1ccc(NC(=S)NC(=O)C(c2ccccc2)c2ccccc2)cc1	0.9	12	0.2	6	-1	1.7	.
55	Cc1cnccc1CNC(=O)C1CCC(=O)N(Cc2ccc(Cl)cc2)C1 (stereo not given)	1.9	-4	4.9	0	-4	4.5	.
56	CC(=O)c1c(O)cc2n(c1=O)-c1ccc(Cl)cc1C2(C)C	7.9	26	2.2	0	2	5.1	-6%
57	CCOC(=O)c1c2n(c3ccc(O)cc13)CCCCC2	-0.5	28	22*	-1	0	3.8	6%
58	Cc1cccn2cc(COc3cccc([N+](=O)[O-])c3)nc12	3.4	-9	-2.5	-22	2	1.5	8%
59	CCOC(=O)c1[nH]cnc1C(=O)Nc1ccccc1C	-0.7	-10	-0.1	-1	3	-4.9	1%
60	Cc1oc(-c2ccc(Cl)cc2)nc1CSCC(=O)NC1CCN(Cc2ccccc2)CC1	0.4	98*	2.6	5	-12	5.0	.
61	CC(=O)c1cccc(OCc2cc(C(=O)NCc3nc(C)c(C)s3)no2)c1	2.0	-2	1.3	2	-12	1.9	.
62	COc1cc2ccccc2cc1C(=O)N1CC(C)CC(C)C1 (stereo not given)	-5.0	1	-0.2	21	7	0.1	.
63	COc1ccc2c(c1OC)C(=O)OC2Nc1nc(-c2ccc(-c3ccccc3)cc2)cs1 (stereo not given)	-4.7	96*	-4.9	-12	8	-6.8	-7%
64	CCOc1cccc(=O)c2c(C)n(CC3CCCO3)c(C)c12 (stereo not given)	-0.7	1	-13	6	1	4.0	?
65	CCN(Cc1ccccc1)C(=O)COC(=O)[C@@H]1CCCN1C(=O)c1cccs1	1.5	10	.	.	4	-7.7	4%
